Screening results (PubChem BioAssay)
Biofilm kill mix: clotrimazole potentiators killing C. albicans biofilm, primary screen, 4-compound mixtures; C. albicans biofilm persisters + clotrimazole, fluorescence viability; primary screen in compound mixtures of four per well; 120,000 compounds, 0.02% hits; AID 1242, 2008; inhibition, % at 7.6 µM;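 active = inhibition above 30.3% in the primary screen of four-compound pools, then above 30% when the compound was retested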;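 also: compounds exposed to preformed 24 h biofilms for 48 h; the number belongs to the whole pool; some results filed as inactive read as strong as hits; inactives centre near 12; 0% = biofilm with clotrimazole alone and 100% = kill control; retested singly at about 60 µM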
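System: C. albicans CAF4-2 wild-type biofilms; Medium: RPMI/MOPS medium, pH 7.0; Reagent: Clotrimazole, 50 µg/mL; Times: biofilm formation 24 h, compound exposure 48 h, 37 °C; Detection: 2-h Alamar Blue fluorescence, 535/590 nm excitation/emission; Evaluation: percent inhibition of biofilm viability.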
An asterisk follows results filed as active.

SMILES	Biofilm kill mix
O=C(CC(c1ccccc1)(c1ccccc1)c1ccccc1)N[C@@H](Cc1ccccc1)C(=O)O	16.6
O=C(N/N=C\c1ccccn1)C1c2ccccc2Oc2ccccc21	19.9
O=C1OC(c2ccc(O)cc2)(c2ccc(O)cc2)c2ccccc21	14.2
O=C1C2C(C(=O)N1c1ccccc1)N1CCCN1C2c1ccccc1 (centres undefined)	10.5
COc1ccc(OC)c(C2CC(=O)Nc3c2c(=O)[nH]c2ncnn32)c1 (centres undefined)	-28.5
CC(CCc1ccccc1)NC(=O)CN1CCc2ccccc2C1 (centres undefined)	12.2
COc1ccc(/C=C(\NC(=O)c2cccs2)C(=O)Nc2cccc3ccccc23)cc1OC	7.0
O=C(O)CC/C(=C\c1ccc(N2CCOCC2)c([N+](=O)[O-])c1)c1nc2ccccc2s1	15.8
CSc1nc(SCC(=O)O)c2c3c(sc2n1)COC(C)(C)C3	2.3
Fc1cccc2sc(Nc3nc4cc5c(cc4s3)OCO5)nc12	7.4
CC(C)c1cc(C(=O)N2CCCC(C(=O)c3ccc4ccccc4c3)C2)on1 (centres undefined)	4.3
O=C(c1ccc(Cl)c(S(=O)(=O)N2CCOCC2)c1)N1CCN(Cc2ccccc2)CC1	-9.6
O=C(O)c1ccc(-n2c(O)c(C=C3N=c4ccccc4=N3)sc2=S)cc1	18.3
COc1ccccc1N(C)S(=O)(=O)c1ccc(Cl)c(C(=O)NC2=NCCS2)c1	12.1
O=C(Cc1ccc(Cl)cc1)c1ccc(O)cc1	0.9
CCC(C)(C)NC(=O)C1CCN(c2nc(OC)nc(OC)n2)CC1	-8.2
CC1(C)CC(=O)C2=C(C1)c1c(ccc3ncccc13)NC2c1cccs1 (centres undefined)	13.3
COc1cc(CCC(=O)Nc2nnc(-c3cccnc3)s2)cc(OC)c1OC	8.6
CC1CCc2c(C(=O)NCc3cccnc3)csc2C1 (centres undefined)	11.4
CCOC(=O)c1c(-c2ccc(C)cc2)csc1/N=C/N(C)C	5.2
COC(=O)[C@@H](NC(=O)Nc1ccc(S(N)(=O)=O)cc1)C(C)C	10.3
CCOC(=O)CSc1nnc(CNC(=O)c2ccc([N+](=O)[O-])cc2)n1C	8.0
CC(C)CC1(C(=O)NCc2cc(F)cc(C(F)(F)F)c2)C=CCN1C(=O)c1ccccc1 (centres undefined)	19.9
COc1ccc2oc(C(=O)NCCC(C)C)c(C)c2c1	15.6
CCc1nc2ccccc2c(=O)n1NCCc1ccccc1	6.8

SMILES	Biofilm kill mix
CCOCCCNC(=S)N1CCCN(c2nc3cc(C)cc(C)c3cc2C#N)CC1	5.1
O=C(Nc1cc(Cl)cc(Cl)c1)C(NCCCO)c1ccccc1 (centres undefined)	15.0
O=C(CCc1ccccc1)NCC(=O)N/N=C/c1ccc2c(c1)OCO2	13.9
Cc1nnc(C)n1/N=C/c1cc2ccccc2nc1Cl	13.8
COc1ccc(NS(=O)(=O)c2cc(NC(=O)/C=C/c3cc(OC)ccc3OC)ccc2N2CCCCC2)cc1	8.3
CCCCC1=CC2=C(c3ccco3)C(=O)C(C)(OC(=O)c3ccc(OC)cc3)C(=O)C2=CN1Cc1ccco1 (centres undefined)	13.7
Cc1nc(CS(=O)(=O)c2ccc(Cl)cc2)sc1C(=O)O	25.6
COc1cc2c(OC(C)=O)c3c(c(-c4ccc5c(c4)OCO5)c2cc1OC)C(=O)OC3	20.3
CCOC(=O)C1(Cc2ccccc2C)CCCN(Cc2cn(C)nc2C)C1 (centres undefined)	10.4
O=C1CC(N2CCN(S(=O)(=O)c3ccccc3)CC2)C(=O)N1c1ccccc1 (centres undefined)	17.2
CC(C)c1cc(C(=O)NCCc2ccccc2)no1	18.4
O=C(O)Cc1ccc(Nc2cnn(C34CC5CC(CC(CC(=O)O)(C5)C3)C4)c(=O)c2Cl)cc1	20.8
Cc1ccc([N+](=O)[O-])c(C(=O)N/N=C/c2cccnc2)c1	15.4
Cn1c(=O)c(/C=C/c2ccc(F)cc2)nc2ccccc21	1.2
NC(=O)CC(NC(=O)Cc1ccc(Br)cc1)c1ccc(NC2CCC2)c([N+](=O)[O-])c1 (centres undefined)	-0.4
CCOC(=O)c1[nH]cnc1N=Nc1c(O)ccc2ccccc12	19.2
Cc1cccn2c(CN(C)CC3CCCCO3)c(C(=O)N3CCCCC3)nc12 (centres undefined)	16.9
COc1ccc(CC(=O)Nc2ccccc2C(=O)N2CCOCC2)cc1	13.7
O=C(CCCc1c[nH]c2ccccc12)NCc1cccs1	1.7
CCOc1cc(/C=C2\SC(=N)N(c3nonc3N)C2=O)ccc1OCCN1CCOCC1	15.2
O=C(N/N=C/c1ccccc1)c1[nH]ncc1Br	13.2
O=C(NNc1cccc(Cl)c1)c1cccnc1Cl	14.5
CCOC(=O)c1cccc(P(C)(C)=O)c1	11.4
O=C(NCc1nc(-c2ccc(C(F)(F)F)cc2)no1)c1cccs1	18.5
C/C(=N\NC(=O)OC(C)(C)C)c1cccc([N+](=O)[O-])c1	14.2

SMILES	Biofilm kill mix
COc1cc(OC)cc(-c2nc3ccccc3c(=O)n2OC(=O)c2ccc(C)c(C)c2)c1	15.0
Cc1ccccc1NC(c1cccc(Cl)c1)c1nnnn1C1CCCCC1 (centres undefined)	11.7
CCOc1ccc(NC(=O)CNC(=O)c2ccc([N+](=O)[O-])cc2)cc1	7.0
COc1cc(C2CC(=O)c3c(ccc4ccccc34)N2)ccc1O (centres undefined)	23.2
Cc1ccc(S(=O)(=O)N(C)C)cc1NC(=O)Cn1c(CN2CCOCC2)nc2ccccc2c1=O	11.3
O=C(NCc1ccccn1)c1cc(-c2ccc(Cl)cc2)nc2ccccc12	12.6
Nc1c(C(=O)N/N=C/c2ccc([N+](=O)[O-])cc2)cnn1-c1ccccc1	27.4
N#CC1=C(S)N(c2ccccc2)C(c2ccc(-c3cccc(Cl)c3)o2)NC1=O (centres undefined)	15.0
O=C(COC(=O)c1ccc(S(=O)(=O)NCc2ccco2)cc1)Nc1ccc(Cl)cn1	-3.2
Cc1ccc(-c2[nH]c3ccccc3c2SCCN)cc1	30.0
CCCCn1c(SCC(=O)N2c3ccccc3Sc3ccccc32)nc2c1c(=O)n(C)c(=O)n2C	-3.8
O=S(=O)([N-]c1nc2ccccc2nc1-n1cc[n+](Cc2ccccc2)c1)c1ccc(Cl)cc1	56.6
C[C@@H](C(=O)Nc1ccc2ccccc2c1)[C@H]1C[C@]1(C)[C@H](NS(=O)(=O)c1ccccc1)c1ccccc1	11.2
C(=N\Nc1nc(-c2ccccc2)cs1)/c1ccncc1	26.6
O=C(CC(C(=O)O)P(=O)(c1ccccc1)c1ccccc1)c1ccc(Br)cc1 (centres undefined)	35.4
Cc1ccc(C(=O)N/C(=C/c2ccco2)C(=O)NCC2CCCO2)cc1 (centres undefined)	20.1
CC1CCCN(c2cc3c(cc2[N+](=O)[O-])C(=O)N(c2ccccc2)C3=O)C1 (centres undefined)	11.9
COc1ccccc1/C=C/C=N/NC(=O)Cc1cccs1	22.5
CCOC(=O)N1CCN(S(=O)(=O)c2ccc3[nH]c(=O)oc3c2)CC1	26.1
CC1(C)OC(=O)N(CCC(=O)Nc2cccc(F)c2)C1(C)O (centres undefined)	10.7
COc1ccc(CCN2C(=O)C(Oc3ccccc3C)C2c2ccc3c(c2)OCO3)cc1 (centres undefined)	16.1
Cc1ccc(OCCOc2ccc(Cl)cc2Cl)c([N+](=O)[O-])n1	19.1
CCOc1ccc(C(=O)NC2CCN(C(=O)N3CCCC3)CC2)cc1	11.1
CCCOc1ccc2cc(-c3ccccn3)c(=O)oc2c1	6.2
COc1ccc(SCCc2ccncc2)cc1	7.8

SMILES	Biofilm kill mix
CN(Cc1nc(-c2ccc3c(c2)OCO3)no1)CC1(N2CCOCC2)CCCCC1	59.3
O=C(COC(=O)c1c2ccccc2cc2ccccc12)NCC(F)(F)F	-4.5
Cc1ccc(C(=O)NNC(=O)c2cccs2)cc1	-3.5
O=C(COc1ccc(-n2ccnc2)cc1)Nc1cccc(F)c1	18.9
Cc1nn(C)cc1NC(=O)c1nn(C)cc1[N+](=O)[O-]	13.4
COCCNC(=S)N1CCc2cc(OC)c(OC)cc2C1c1cccs1 (centres undefined)	15.6
Cc1ccc(C)c(NC(=S)NNC(=O)c2csc(C)c2C)c1	15.4
CCc1cccc(NC(=O)c2ccc(CNc3c(N4CCCC4)c(=O)c3=O)cc2)c1	27.4
Cc1ccc(-n2nc3c(n2)/C(=N/O)CC/C3=N\O)cc1	16.5
C=CCSc1nc2ccccc2n1S(=O)(=O)c1ccc(Cl)cc1	12.9
CCCc1c(NC(=O)Nc2ccc(F)cc2)cnn1-c1ccccc1	10.7
CCOC(=O)c1ccc(N2CCOCC2)c(NC(=O)c2c(-c3ccccc3)noc2C)c1	12.5
CCN(CC)S(=O)(=O)c1ccc(-c2csc(C)n2)s1	16.0
O=C(CC1NCCc2ccccc21)Nc1ccc(Oc2ccccc2)cc1 (centres undefined)	18.3
Cc1ccc(NC(=O)CC2NCCN(Cc3ccccc3)C2=O)cc1 (centres undefined)	23.4
Cc1ccc(NC(=O)c2ncn[nH]2)cc1	8.7
O=C(O)c1ccc(Nc2nc(-c3ccccc3)cs2)cc1	6.6
CC(=O)Nc1ccc(SC[C@H](CC(C)C)N2CCN(CCc3ccccc3)CCC2=O)cc1	15.2
CCOCc1nc(N)[nH]c(=O)c1Cc1ccc(OC(C)C)cc1	7.4
Cc1ccc(NC(=O)CSc2nnc(C3COc4ccccc4O3)o2)c(Cl)c1 (centres undefined)	5.1
CN1CCN(C(c2cccc(Cl)c2)c2ccccc2Cl)CC1 (centres undefined)	17.0
Cc1ccc(Cn2nc(C)c(NC(=O)CCCn3nc([N+](=O)[O-])c(Cl)c3C)c2C)cc1	15.9
CCOc1cc(S(=O)(=O)NCc2ccccc2)ccc1Br	7.9
COCCn1cnnc1SCC(=O)Nc1sccc1C(N)=O	13.4
CN(CCC#N)C(=O)COC(=O)c1cc(Cl)cc(Cl)c1N	3.3

Part of the list above in order of length of the SMILES, ascending:
SMILES	Biofilm kill mix
Cc1ccc(C)c(NC(=S)NNC(=O)c2csc(C)c2C)c1	15.4
Cc1nn(C)cc1NC(=O)c1nn(C)cc1[N+](=O)[O-]	13.4
CC(=O)Nc1ccc(SC[C@H](CC(C)C)N2CCN(CCc3ccccc3)CCC2=O)cc1	15.2

Next entries.
SMILES	Biofilm kill mix
COc1cccc(OCC(=O)NNC(=O)c2cnccn2)c1	12.0
COc1ccc(CNC(=O)Cn2nc(C(F)(F)F)cc2C)cc1	11.6
Cc1ccc(N(CC(=O)NN=C2CCN(C)CC2)S(=O)(=O)c2ccc(C)cc2)cc1	12.5
Cc1cccc(C)c1NC(=O)C1(N2C(=O)CC2c2ccccc2)CCCCC1 (centres undefined)	-19.0
COc1ccc(C(=O)OCC[N+]2(C)CCOCC2)cc1	12.8
CCOC(=O)c1n[nH]n(-c2cc(Cl)cc(Cl)c2)c1=O	5.3
CCCCCCCc1c(O)nc(SCCN(C)C)[nH]c1=O	10.6
COc1cc2nc(/C=C/c3cc(OC)c(OC)c(OC)c3)sc2cc1SC	8.2
O=C(COC(=O)CCc1nc2ccccc2s1)Nc1ncc(Cl)cc1Cl	6.0
COc1ccc(CCCc2nnc(SCC(=O)Nc3ccccc3F)o2)cc1	10.7
Cc1nc(SCC(=O)Nc2ccccn2)n[nH]1	10.4
O=C(O)C1CC=CCC1C(=O)Nc1cccnc1 (centres undefined)	-1.6
Cc1ccc(CNc2ccc3nnc(-c4ccccc4)n3n2)cc1	9.7
Clc1cccc(NCc2ccccc2)n1	13.7
O=[N+]([O-])c1cccc(S(=O)(=O)c2ccc(NCCO)c([N+](=O)[O-])c2)c1	8.9
S=c1[nH]nc(Cn2cnc3ccccc32)n1-c1ccccc1	9.6
S=C(NCc1ccccc1)Nc1cccc(Cl)c1	11.6
COc1cccc(-n2c(N)c(-c3nc4ccccc4[nH]3)sc2=S)c1	20.6
O=C(NC1CC1)c1ccc2c(Cl)c3c(nc2c1)CCCC3	9.3
O=C(CNC(=O)c1ccco1)N/N=C/c1ccccc1[N+](=O)[O-]	18.2
COCCCNC(=S)N/N=C/c1ccc(N(C)C)cc1	13.7
CCOC(=O)c1sc2nc(CSc3ccccc3)nc(N3CCCN(C)CC3)c2c1C	15.2
O=C(COC(=O)CCSc1ccccc1)Nc1cc(F)ccc1F	12.1
CCN(CC)CC1(O)CCN(C(=O)c2ccc(Cl)c(Cl)c2)CC1	16.0
O=[N+]([O-])c1ccc(F)c(N=Cc2ccc(Br)s2)c1	9.3

SMILES	Biofilm kill mix
Cn1ccnc1/C(=N\NC(=O)c1ccccc1)c1cccc([N+](=O)[O-])c1	18.1
CCOC(=O)C1(CC2CCCCO2)CCN(Cc2cc3ccccc3[nH]2)CC1 (centres undefined)	14.9
COCCN=C1NN=C(c2ccc(C)c([N+](=O)[O-])c2)CS1	2.9
O=C(CSC(=S)N1CCOCC1)c1ccccc1	8.6
O=C(NC(=S)Nc1ccc2oc(=O)ccc2c1)c1ccco1	24.5
O=C(NCC1CCCO1)c1ccccc1S(=O)(=O)c1ccc([N+](=O)[O-])cc1 (centres undefined)	22.8
OC1CCCN(C(=S)NCc2ccccc2)C1 (centres undefined)	8.9
O=c1c(-c2cccc([N+](=O)[O-])c2)[n+]([O-])c2ccccc2n1O	11.3

These rows are one share of the data; rates above refer to the full screens.
